LANA-H2A inh = blocks KSHV LANA binding to histone H2A/H2B; AID 2629; 320,000 compounds, 0.6% hits; inhibition, % (no concentration beside the values); cell-free LANA-H2A/H2B peptide, fluorescence polarization; Q9QR71; in the data active = inhibition mostly above about 10%, no sharp cut-off; inactive = mostly below about 6.7%;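 note: stock transfer was 7.5 nL into about 10 µL; 0% = median of vehicle wells and 100% = median of positive control wells; one replicate is shown; the record names a cut of 25% in any replicate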
Target sequence (Q9QR71 whole entry, looked up): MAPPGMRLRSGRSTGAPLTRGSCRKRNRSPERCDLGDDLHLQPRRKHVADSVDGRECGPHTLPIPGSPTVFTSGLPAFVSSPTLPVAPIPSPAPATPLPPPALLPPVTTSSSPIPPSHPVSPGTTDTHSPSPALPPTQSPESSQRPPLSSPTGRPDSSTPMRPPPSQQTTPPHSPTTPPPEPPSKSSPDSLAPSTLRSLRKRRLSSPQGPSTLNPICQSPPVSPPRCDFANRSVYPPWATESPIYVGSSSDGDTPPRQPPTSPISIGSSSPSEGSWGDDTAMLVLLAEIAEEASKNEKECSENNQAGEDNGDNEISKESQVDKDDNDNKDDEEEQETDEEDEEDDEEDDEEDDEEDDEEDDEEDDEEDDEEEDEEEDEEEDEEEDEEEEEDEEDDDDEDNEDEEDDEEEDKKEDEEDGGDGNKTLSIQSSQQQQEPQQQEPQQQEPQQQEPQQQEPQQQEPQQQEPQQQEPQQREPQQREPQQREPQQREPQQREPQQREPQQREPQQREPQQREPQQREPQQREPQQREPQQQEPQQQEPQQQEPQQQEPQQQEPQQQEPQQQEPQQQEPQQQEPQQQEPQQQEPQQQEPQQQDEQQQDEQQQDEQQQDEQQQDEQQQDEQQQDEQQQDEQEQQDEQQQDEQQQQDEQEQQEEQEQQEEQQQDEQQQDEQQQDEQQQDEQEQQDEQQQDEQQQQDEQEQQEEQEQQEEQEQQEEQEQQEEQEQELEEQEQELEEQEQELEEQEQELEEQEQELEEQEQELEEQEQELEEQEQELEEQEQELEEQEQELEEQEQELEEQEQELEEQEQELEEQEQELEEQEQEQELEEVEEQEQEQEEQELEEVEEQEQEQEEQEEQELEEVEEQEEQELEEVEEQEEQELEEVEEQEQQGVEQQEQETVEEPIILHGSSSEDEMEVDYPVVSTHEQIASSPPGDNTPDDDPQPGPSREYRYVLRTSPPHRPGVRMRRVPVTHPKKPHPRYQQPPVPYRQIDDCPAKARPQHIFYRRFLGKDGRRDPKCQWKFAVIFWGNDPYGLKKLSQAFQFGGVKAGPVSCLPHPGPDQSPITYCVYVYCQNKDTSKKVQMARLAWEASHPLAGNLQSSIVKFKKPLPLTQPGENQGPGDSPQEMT
Beta apoptosis = blocks beta cell apoptosis; INS-1E cytokine-induced death, ATP luminescence, 48 h; percent of positive-control rescue, neutral wells zero; protection from apoptosis, % (no concentration beside the values); 300,000 compounds, 0.8% hits; AID 435005;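 active = all replicates at 75% or more, or half of them and the mean; inconclusive = half reach 75% but not the mean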;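 note: 0% = cytokine-treated negative control wells and 100% = positive control rescue; higher means more ATP so stronger rescue from cytokine killing; wells of about 40 µL received 100 nL stock; the first replicate is given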
RanGTP-Impb inh = disruptors of Ran-importin-beta complex formation – biochemical, FRET, CFP-Ran, YFP-importin-beta, homogeneous, primary screen | cell-free CFP-Ran/YFP-importin-beta FRET ratio | inhibition, % (no concentration beside the values) | 300,000 compounds, 1.1% hits;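 active = most replicates above 15%; inconclusive = exactly half above 15%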;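 note: 0% = DMSO wells and 100% = Ran loaded with GDP instead of GTP; wells of about 40 µL received 100 nL stock; the first replicate is given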
Bfl-1 A1 inh = inhibitors of the anti-apoptotic protein A1, read as caspase activation; caspase activation, % (no concentration beside the values); MEF A1-2A-BIM cells, Caspase-Glo 3/7 luminescence, 3 h; percent of clofoctol response, vehicle zero; 330,000 compounds, 0.066% hits;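 active = over half of replicate activation scores above 10%, or exactly half above 10 with the replicate mean above 10; inconclusive = replicate mean below 10 yet half the replicates above 10; inactive = over half of replicates below 10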;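 note: wells of about 30 µL received 50 nL stock; many hits fall short of the cut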
T cruzi inh = T. cruzi replication inhibition | T. cruzi beta-gal in NIH3T3, luminescence, 90 h | inhibition, % (test concentration not listed) | 300,000 compounds, 1.4% hits | AID 1885;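 active = mean inhibition across valid replicates above about 55%, limit read from the data; inconclusive = mean below that limit but half or more replicates reach it; inactive = mean below it, under half of replicates reach it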;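 note: signal also drops with host cell toxicity which is not excluded here; 0% = plate median of DMSO wells and 100% = zero luminescence signal; higher percent means less beta-gal luminescence so fewer parasites; stock transfer was 50 nL into about 50 µL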
Vif A3G = inhibitors of Vif binding to APOBEC3G peptide, primary screen, biochemical, TR-FRET, GST-Vif 1-94, biotin-A3G peptide, dose response retest (AID 1117319). TR-FRET GST-Vif / biotin-A3G peptide binding; higher % means a stronger effect; test concentration not given here; strong numbers were not always called active. inhibition, %; hits with a dose series show IC50 in µM. 260,000 compounds, 0.57% hits;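 active = above the screen mean plus three standard deviations and confirmed in dose response; inconclusive = results disagree or hit not tested in dose response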;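 note: Vif residues 1-94 fused to GST binding biotinylated APOBEC3G peptide 110-148; 0% = full assay without inhibitor and 100% = GST in place of GST-Vif; retest series ran down from 100 µM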
Calb FLC = affects C. albicans growth with fluconazole | C. albicans CaCi-2 (fluconazole-resistant clinical isolate) + fluconazole, Alamar Blue growth, 48 h | growth inhibition, % (no concentration beside the values) | 300,000 compounds, 0.57% hits;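 active = most replicates above 75%; inconclusive = exactly half above 75%; inactive = most below 75%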;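 note: all wells also contain fluconazole at 8 µg/ml as a sub-toxic cotreatment; 0% = median of DMSO wells and 100% = median of geldanamycin control wells; wells of about 8 µL received 7.5 nL stock; the first replicate is given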
MLL AF4-AF9 inh = MLL-AF4/AF9 protein interaction inhibition; 350,000 compounds, 0.47% hits; AlphaScreen, biotin-AF4 peptide binding to FLAG-AF9; inhibition, % at 10 µM; P42568;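 active = every replicate reaching a set inhibition limit, whatever the replicate mean, cut at about 25% in these data; inconclusive = mean inhibition reaches that limit but some replicates miss it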;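 note: 0% = plate neutral control median and 100% = total signal loss; the record names both 10 and 1 µM as test concentration; the first replicate is given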
Active calls of the source: *; u = inconclusive; x = no result given. This is a random part of the collection; 4.3% or so of the library scored in one or more.

SMILES | LANA-H2A inh | Beta apoptosis | RanGTP-Impb inh | Bfl-1 A1 inh | T cruzi inh | Vif A3G | Calb FLC | MLL AF4-AF9 inh
O=C(CSc1nnc(-c2ccccc2F)n1C1CC1)Nc1cccnc1Cl | 1.5 | -5 | 1.3 | -0.2 | -2 | -1% | u | -1.3
CCCC1=Nc2cc(C(=O)NCCCN3CCOCC3)ccc2Sc2ccccc21 | 0.6 | -7 | 6.5 | 1.3 | 20 | x | 6 | 4.0
CCOC(=O)CNC(=O)C12CC3CC(C1)CC(c1ccc(C)cc1)(C3)C2 | -1.8 | -5 | 3.3 | 0.9 | -10 | x | -1 | 10
O=C(/C=C/c1ccccc1)Nc1ccc(Cl)cn1 | x | x | x | x | -88 | 4% | -15 | -0.6
N#CCSc1nnc(-c2ccc(F)cc2)n1N | 1.5 | -2 | 2.8 | 0.2 | -4 | -5% | 5 | -2.6
Cc1cccc(N2CCN(S(=O)(=O)c3c(C(=O)N4CCCCC4)c(C)n(C)c3C)CC2)c1C | 1.7 | -15 | -1.6 | 0.0 | 18 | x | 11 | 16
N=c1ccn(Cc2ccc(Cl)c(Cl)c2)cc1 | -6.0 | 46 | -0.9 | 0.7 | 0 | 8% | u | x
CCOC(=O)C(NC(C)=O)C(=O)Nc1c(C)cccc1C (stereo not given) | 7.0 | -2 | u | -0.2 | -18 | -1% | -5 | -0.8
CCNC(=O)N1C(=O)C2(OCCO2)c2cc(Br)ccc21 | 0.3 | -4 | -3.2 | 0.0 | -3 | 0% | -1 | x
Cc1cc(N2CCOCC2)ccc1/C=C1\NC(=O)N(CC(=O)Nc2ccc(F)cc2)C1=O | 4.4 | -4 | -1.8 | 1.7 | -9 | 9% | -40 | 0.5
COc1cc(/C=C(\C#N)C(=O)NCC2CCCO2)ccc1OC(C)C (stereo not given) | 0.5 | -2 | 8.5 | 0.9 | -2 | x | 1 | x
O=C(Cc1ccccc1)N/N=C/c1cccnc1 | -1.0 | -6 | -2.8 | -0.5 | -4 | -4% | -5 | -2.5
O=C(NNC(=S)NC(=O)c1ccco1)c1ccc(NC(=O)c2ccccc2)cc1 | 0.4 | 10 | -2.9 | 0.1 | -28 | 12% | -13 | -0.4
Cc1ccccc1NC(=O)c1ccc(NS(=O)(=O)c2cc(C(C)(C)C)cc(C)c2C)cc1 | x | 2 | -0.9 | -0.5 | 16 | 18% | u | x
CC1(OC(=O)CCc2ccccc2)C(=O)C=C2C=C(c3ccc(C#N)cc3)N(CCc3ccccn3)C=C2C1=O (stereo not given) | 4.1 | -5 | 5.1 | 0.2 | -7 | x | 12 | u
CCOc1ccc(OCCNCc2ccc(OC(C)C(=O)N(C)C)c(OCC)c2)cc1 (stereo not given) | -1.1 | -4 | 1.5 | 0.4 | 31 | 1% | -2 | -2.9
CC(C)CCNC(=O)C1(c2cccs2)CCOCC1 | -3.3 | -2 | -1.0 | 0.3 | 2 | x | 0 | 4.8
C=CCn1c(=NC(=O)C2CCCCC2)sc2cc(NC(C)=O)ccc21 | x | x | 0.8 | x | 25 | -9% | -5 | 0.6
COc1ccccc1CCC(=O)OC(C)C(=O)Nc1c(C)n(C)n(-c2ccccc2)c1=O (stereo not given) | -2.8 | -7 | x | 0.6 | -3 | -3% | 3 | -0.2
Cc1csc(SCC(=O)NC2CCC(C)CC2)n1 (stereo not given) | -3.7 | -3 | 1.8 | -0.4 | -4 | 2% | -3 | -36
COc1ccc(C(CC(=O)c2ccc(O)cc2)S(=O)(=O)c2ccc(C)cc2)cc1 (stereo not given) | -0.7 | -8 | 1.5 | -4.7 | -12 | 5% | 22 | -27
Cc1c(Cl)cccc1NC(=O)C1CCCN(S(C)(=O)=O)C1 (stereo not given) | 3.5 | 0 | -0.7 | 2.2 | -6 | x | -15 | 1.9
COc1ccc(Cc2n[nH]c(=S)n(N)c2=O)cc1 | 1.9 | 2 | -1.8 | 1.7 | 10 | -11% | -14 | 3.5
CCn1c(=O)cc(N2CCN(C(=O)c3ccco3)CC2)[nH]c1=O | -0.4 | 3 | 10.0 | 0.7 | 0 | 6% | 1 | -23
CC(C)C(=O)C1=Cc2cc([N+](=O)[O-])ccc2OC1N1CCOCC1 (stereo not given) | 3.1 | -3 | 0.1 | 0.1 | -11 | x | 20 | -2.3
Cc1cc(Nc2ccccc2)nn1C(=O)c1ccccc1 | -2.0 | -10 | 18* | 0.4 | 4 | 1% | 2 | x
Cc1onc(-c2ccccc2)c1C(=O)N/N=C/c1ccco1 | 0.0 | -7 | 0.5 | 1.9 | -15 | x | -3 | 2.1
Cc1cccc(Oc2nc3ccccn3c(=O)c2/C=C(\C#N)C(=O)NC2CCS(=O)(=O)C2)c1 (stereo not given) | -0.2 | -1 | 27* | -0.3 | -8 | x | 13 | x
COC(=O)C1CCN(C(=O)c2ccc(SC)cc2OC)CC1 | 12* | -2 | 5.3 | 0.0 | -2 | 12% | -2 | x
O=C(COCC(=O)N1CCOCC1)N1CCOCC1 | 0.4 | -15 | 6.7 | -0.2 | -6 | 9% | 1 | 0.1

Complete entries from above.
Listed for COc1ccc(Cc2n[nH]c(=S)n(N)c2=O)cc1 : LANA-H2A inh: 1.9; Beta apoptosis: 2; RanGTP-Impb inh: -1.8; Bfl-1 A1 inh: 1.7; T cruzi inh: 10; Vif A3G: -11%; Calb FLC: -14; MLL AF4-AF9 inh: 3.5
Listed for Cc1cc(Nc2ccccc2)nn1C(=O)c1ccccc1 : LANA-H2A inh: -2.0; Beta apoptosis: -10; RanGTP-Impb inh: 18*; Bfl-1 A1 inh: 0.4; T cruzi inh: 4; Vif A3G: 1%; Calb FLC: 2; MLL AF4-AF9 inh: x

Carrying on:
SMILES | LANA-H2A inh | Beta apoptosis | RanGTP-Impb inh | Bfl-1 A1 inh | T cruzi inh | Vif A3G | Calb FLC | MLL AF4-AF9 inh
COc1ccc(C(=O)NN)cc1 | 3.7 | -6 | 3.4 | 0.1 | 0 | 4% | -2 | -7.1
COc1cc(/C=C2/C(=O)CNC2=O)ccc1O | 9.5 | 3 | -4.9 | 0.3 | -12 | -1% | -3 | x
CCCCOc1ccc(Cc2c(Cl)nc(SC)nc2N2CCOCC2)cc1 | -5.3 | 6 | 0.6 | -0.3 | -8 | 0% | 4 | x
O=C1C2CCCN2C(=O)N1CCCN1CCN(c2cccc(Cl)c2)CC1 (stereo not given) | 1.6 | 0 | -2.9 | 0.5 | -1 | -3% | 13 | -2.2
C1CCC(CNc2c3c(nc4nnnn24)CCCC3)CC1 | 5.7 | 1 | -1.9 | -1.0 | 68* | -6% | -7 | x
Cc1ccc(S(=O)(=O)N2CC(=O)NC(=O)C2)cc1 | -3.0 | 6 | u | -0.3 | -3 | x | -1 | -0.9
CN(Cc1ccccc1)C(=O)COC(=O)c1ccc(Cl)c(N)c1 | -3.3 | 2 | -1.2 | 0.1 | -13 | u | -1 | x
CCCCN(C(=O)c1ccc([N+](=O)[O-])s1)c1c(N)n(CCCC)c(=O)[nH]c1=O | -15 | -8 | x | 1.8 | 53 | 6% | -2 | 2.4
COc1ccccc1NC(=O)CN1CCC(n2nnc3cc(F)ccc32)CC1 | -1.9 | 5 | -1.7 | 1.1 | -1 | -2% | 10 | x
Cc1cccc(N2CCN(C(=S)c3ccc(-c4ccccc4[N+](=O)[O-])o3)CC2)c1 | 3.8 | -6 | 2.1 | 0.1 | -16 | 10% | -9 | x
O=C(O)c1ccc(COCC(F)(F)C(F)F)o1 | 3.6 | -2 | 0.2 | 2.2 | -19 | 5% | 6 | x
Cc1csc(-c2cnn(-c3ccccc3)c2NC(=O)c2cccc(F)c2)n1 | -0.1 | -3 | 5.5 | 0.2 | 1 | 3% | -1 | x
CCS(=O)(=O)N1Cc2ccccc2CC1C(=O)N(C)CC(=O)Nc1ccc(OC)cc1 (stereo not given) | -1.7 | -1 | x | 1.3 | x | -4% | x | 3.7
CC(C)Cn1c(N)c(-c2nc(C(C)C)c(C(=O)c3ccccc3F)s2)c(=O)n(C)c1=O | 1.1 | 6 | -1.5 | 0.6 | 47 | x | 1 | x
S=c1[nH]cc(-c2ccccc2)n1-c1ccccc1 | 7.4 | 4 | 3.9 | 0.5 | 15 | -10% | -4 | x
COc1ccc(C(C(=O)NC2CCCC2)N(C(=O)c2ccoc2C)c2ccc(C)cc2)cc1 (stereo not given) | -1.3 | -2 | -2.2 | 0.0 | 6 | -5% | 3 | x
Cc1cc2c(cc1S(=O)(=O)N(C)Cc1ccccc1)OCC(=O)N2 | 2.2 | -4 | u | 0.1 | 6 | x | -7 | -13
Cn1cnc2c1c(=O)n(Cc1ccc(Cl)cc1Cl)c(=O)n2C | -0.7 | -4 | 1.6 | -0.2 | -2 | x | -4 | -3.0
CC(C)(C)C(=O)NC1CCN(S(=O)(=O)c2cccc(C(F)(F)F)c2)CC1 | 1.2 | 4 | 0.5 | 0.0 | -5 | 14% | 16 | x
N#Cc1c(/N=C/c2ccccc2)oc(-c2ccccc2)c1-c1ccccc1 | -5.1 | x | 2.2 | 0.4 | 32 | -2% | 12 | x
COCCNC(=O)CN1C(=O)CSc2cc(S(=O)(=O)N3CCCCCC3)ccc21 | 1.3 | -17 | u | 0.3 | -7 | x | -9 | 0.7
CC(=O)c1cccc(NC(=O)N2C3CCC2CC(NC(=O)Nc2ccccc2)C3)c1 (stereo not given) | 11 | 1 | -1.9 | -0.2 | -5 | x | -39 | -0.1
Cc1cc(-n2c(C)cc(C(=O)CCl)c2C)no1 | -2.2 | 9 | 1.8 | 0.2 | 79* | u | 5 | 3.8
CN(C)[C@@H](CO)c1nnc([C@H](Cc2ccc(O)cc2)NC(=O)C2CCNCC2)o1 | -5.5 | -2 | 4.5 | 0.0 | 9 | x | 4 | -3.6
CC(C)CN1CCC(C(=O)NCC2CCCO2)CC1 (stereo not given) | 2.8 | -15 | 4.7 | 0.4 | 2 | -4% | 2 | x
N#Cc1c(NC(=O)CCCl)sc2c1CCCCC2 | 1.9 | -12 | -0.3 | 1.0 | 7 | x | 59 | 0.5
CCOCc1nnc(NC(=O)CSCc2ccccc2)s1 | -0.9 | -1 | 2.1 | -0.1 | 2 | u | -15 | x
CC(=O)c1ccc(Nc2nc(=O)c3cccnc3s2)cc1 | -2.6 | -7 | 2.6 | -1.4 | -10 | >100µM* | 5 | x
CC1CCCC(C)N1C(=O)COC(=O)c1ccccc1O (stereo not given) | -1.9 | -4 | x | 0.0 | x | 0% | x | 2.5
CCc1c(C)sc(NC(=O)c2noc(C)c2[N+](=O)[O-])c1C#N | -1.8 | -6 | 1.2 | 0.3 | -1 | 9% | u | 0.7
CC(=O)c1cccc(NC(=O)C(C)OC(=O)C2=NNC(=O)CC2)c1 (stereo not given) | -7.1 | 1 | x | 0.1 | x | x | x | -1.9
COc1ccc(Cc2nnc(N)s2)cc1OC | -0.2 | -1 | -0.9 | 0.3 | 3 | -3% | 5 | x

Bioassay records: PubChem BioAssay, several laboratories
